CFTR F508del: compounds raising F508del-CFTR protein level – cell-based, HeLa F508del-CFTR, immunofluorescence, viability, primary screen (AID 1224863); HeLa F508del-CFTR, immunofluorescence total CFTR, 24 h; by the record results were divided by relative cell number; some inactives read as strong as hits; calls, or highest fold increase where a dose series was run; 10,000 compounds, 0.1% hits; in the data nearly all actives have a first-pass fold increase above 1.5; a few of its hits are not listed in these tables;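 further: total CFTR protein by anti-CFTR immunofluorescence in fixed cells; first pass at 25 µM or 10 µg/mL by library and series up to twice that; 1 = untreated cells; first-pass hits also needed half or more of the cells alive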
CFTR F508del fold 25 µM: recorded beside CFTR F508del, whose call it bears; fold increase; measured here: primary screen single dose 25 uM; library dosed in µM
CFTR F508del fold 10 ug/mL: second read-out of CFTR F508del, no call of its own (marks repeat the call); fold increase; measured here: primary screen 10 ug/mL
CFTR F508del viability 25 µM: recorded beside CFTR F508del, whose call it bears; viability, %; measured here: primary viability 25 uM; library dosed in µM;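 0% = killed and 100% = untreated cells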
CFTR F508del viability 10 ug/mL: further read-out of CFTR F508del, marked with its call; viability, %; measured here: primary viability 10 ug/mL;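 0% = killed and 100% = untreated cells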
* hit, by the source's call; i = inactive; / = not tested or not shown; + = active, no number; & = joins results of further samples.

SMILES | CFTR F508del | CFTR F508del fold 10 ug/mL | CFTR F508del viability 10 ug/mL | others
O=C(COC(=O)c1ccc(N2CCCC2)c([N+](=O)[O-])c1)c1ccc2c(c1)OCCO2 | i | 1.01 | 82.0
O=C(C1=CN2CCS(=O)(=O)N=C2C=C1)N1CCC(C(=O)N2CCCC2)CC1 | i | 1.08 | 93.0
COc1ccccc1-c1noc(CN2CCc3ccccc32)n1 | i | 1.06 | 107.0
CCC(c1ccc(O)cc1)C(CC)c1ccc(O)cc1 (centres undefined) | i | / | / | CFTR F508del fold 25 µM=1.04;CFTR F508del viability 25 µM=96.0
O=C(CCc1ccc2c(c1)OCCO2)NC1=NCCS1 | i | 1.08 | 88.0
CN1C2CC[C@@H]1CC(OC(=O)[C@H](CO)c1ccccc1)C2 (some centres undefined) | i | / | / | CFTR F508del fold 25 µM=1;CFTR F508del viability 25 µM=93.0
CC(Sc1nnc(-c2ccc(F)cc2)c2ccccc12)c1nnnn1-c1ccccc1 (centres undefined) | i | 1 | 92.0
COC(=O)c1ccc2[nH]c3c(c2c1)CN(S(=O)(=O)N1CC(C)OC(C)C1)CC3 (centres undefined) | i | 1.05 | 88.0
Cc1ccc(C(C)(C)C)cc1S(=O)(=O)NC1CCCCCCC1 | i | 1.08 | 83.0
CC(C)CC(CNS(=O)(=O)C1=Cc2ccccc2CC1)N1CCOCC1 (centres undefined) | i | 0.91 | 94.0
O=C(NC1CC1)C1CCNCC1 | i | 1.04 | 99.0
O=C(O)C1=C(CSc2nnnn2CS(=O)(=O)O)CS[C@@H]2C(NC(=O)[C@H](O)c3ccccc3)C(=O)N12 (some centres undefined) | i | / | / | CFTR F508del fold 25 µM=1.1;CFTR F508del viability 25 µM=108.0
O=S(=O)(c1cc(Cl)cc(Cl)c1)N1CCN(S(=O)(=O)c2ccc3c(c2)OCCO3)CC1 | i | 1.05 | 82.0
CCCCC1(C)NC(=O)N(CN2CCN(S(=O)(=O)c3cccs3)CC2)C1=O (centres undefined) | i | 1.07 | 97.0
CS(=O)(=O)CCC1NC(=O)N(Cc2cc(Cl)cc3c2OCOC3)C1=O (centres undefined) | i | 0.95 | 105.0
COc1ccc(S(=O)(=O)Nc2ccc3c(c2)OC2(CCCCC2)O3)cc1[N+](=O)[O-] | i | 1.08 | 97.0
OCC1CCCN(c2ncnc3scc(-c4ccc(Br)cc4)c23)C1 (centres undefined) | i | 0.76 | 80.0
O=C(OC1CC2CCC(C1)[N+]21CCCC1)C(O)(c1ccccc1)c1ccccc1 (centres undefined) | i | / | / | CFTR F508del fold 25 µM=1.1;CFTR F508del viability 25 µM=106.0
CC(NCc1ccccc1Br)c1nnc2n1CCC2 (centres undefined) | i | 1 | 94.0
FC(F)(F)c1nnc2ccc(N3CCN(Cc4ccncc4)CC3)nn12 | i | 1.02 | 112.0
COC(=O)COC(=O)c1c(C)oc(-n2cccc2)c1C#N | i | 1.02 | 100.0
O=S(=O)(NCc1ccc(N2CCCC2)nc1)c1cc(F)cc(F)c1 | i | 1 | 100.0
O=C(Cn1cnc2sc3c(c2c1=O)CCSC3)N(C1CCCC1)C1CCS(=O)(=O)C1 (centres undefined) | i | 1.1 | 77.0
NCC(=O)CCC(=O)O | i | / | / | CFTR F508del fold 25 µM=1.19&1.08;CFTR F508del viability 25 µM=100.0&81.0
O=[N+]([O-])c1ccc(NCCC2=CCCCC2)c(S(=O)(=O)N2CCOCC2)c1 | i | 1.01 | 98.0
SMILES | CFTR F508del | CFTR F508del fold 10 ug/mL | CFTR F508del viability 10 ug/mL | others
CSCC(=O)Nc1ccc(N2CCCC2=O)c(Cl)c1 | i | 0.99 | 99.0
O=c1n(Cc2cc3c(cc2Br)OCCO3)nnn1-c1cccs1 | i | 0.94 | 86.0
C[C@]12CCC(=O)C=C1[C@@H]1C[C@@H]1C1C2CC[C@@]2(C)C1[C@@H]1C[C@@H]1[C@@]21CCC(=O)O1 (some centres undefined) | i | / | / | CFTR F508del fold 25 µM=0.67;CFTR F508del viability 25 µM=43.0
CCCc1cc(Nc2ccc(N(C)C)cc2)n2c(nc3ccccc32)c1C#N | i | 1.08 | 107.0
CCCc1c(C(=O)O)cnn1CCO | i | 1.11 | 93.0
c1cnn(-c2ccc(CNCc3ccnc(-n4cccn4)c3)cc2)c1 | i | 1.24 | 104.0
CC1CN(Cn2nc(CC3CCS(=O)(=O)C3)n(C)c2=S)CCO1 (centres undefined) | i | 1.04 | 114.0
NC(=NCCCCCCN=C(N)/N=C(\N)Nc1ccc(Cl)cc1)/N=C(\N)Nc1ccc(Cl)cc1 | i | / | / | CFTR F508del fold 25 µM=0.61;CFTR F508del viability 25 µM=21.0
CCC(Sc1nnc(NC2CC2)s1)C(=O)Nc1cc(C)on1 (centres undefined) | i | 1.01 | 101.0
CC(=O)N1CCN(c2ccc(OCC3CO[C@](Cn4ccnc4)(c4ccc(Cl)cc4Cl)O3)cc2)CC1 (some centres undefined) | i | / | / | CFTR F508del fold 25 µM=0.89;CFTR F508del viability 25 µM=88.0
Cc1sc2ncnc(N3CCCC3c3nc4ccccc4s3)c2c1C (centres undefined) | i | 0.99 | 79.0
O=C(COc1cccc(Oc2ccccc2)c1)C12CC3CC(CC(C3)C1)C2 | i | 0.99 | 92.0
O=S(=O)(NCc1ccnc(-n2cccn2)c1)c1ccc(S(=O)(=O)C(F)F)cc1 | i | 0.89 | 75.0
Cc1csc(NC(=O)CCc2ccco2)n1 | i | 1.05 | 98.0
COC(=O)CCn1c(SCC2CC2(Cl)Cl)nc2ccccc2c1=O (centres undefined) | i | 1.06 | 92.0
O=C1c2ccccc2S(=O)(=O)N1Cc1cc2c(cc1Br)OCCO2 | i | 1.02 | 88.0
CC1=C(C(=O)OC(C)C)C(c2cccs2)n2c(s/c(=C/c3ccc(C)o3)c2=O)=N1 (centres undefined) | i | 1.02 | 87.0
Cc1nn(-c2ccccc2)c(C)c1CNCc1ccc(N(C)C)cc1 | i | 1.05 | 97.0
O=C(Nc1ccc(F)cc1F)C1CCC(C(F)(F)F)NC1=O (centres undefined) | i | 0.91 | 97.0
COCCn1c(SC(C)c2nnnn2-c2ccccc2)nc2ccccc21 (centres undefined) | i | 0.96 | 77.0
CC1Oc2ccc(NC(=O)C3=NN(C)C(=O)CC3)cc2NC1=O (centres undefined) | i | 0.99 | 100.0
O=C(c1cc(F)cc(F)c1)N1CCSc2ccc(Cl)cc21 | i | 0.9 | 80.0
CCCC(=O)N1CCCC1C(=O)O (centres undefined) | i | 1.02 | 101.0
CCC(CC)NC(=O)CN1C(=O)NC2(CCC(C)CC2)C1=O (centres undefined) | i | 1.11 | 86.0
O=C(CCC1CCCC1)N1CCn2c1nc1ccccc12 | i | 1.04 | 83.0

Fetched one by one from above:
SMILES | CFTR F508del | CFTR F508del fold 10 ug/mL | CFTR F508del viability 10 ug/mL | others
COC(=O)CCn1c(SCC2CC2(Cl)Cl)nc2ccccc2c1=O (centres undefined) | i | 1.06 | 92.0
CCC(Sc1nnc(NC2CC2)s1)C(=O)Nc1cc(C)on1 (centres undefined) | i | 1.01 | 101.0
COCCn1c(SC(C)c2nnnn2-c2ccccc2)nc2ccccc21 (centres undefined) | i | 0.96 | 77.0
O=C1c2ccccc2S(=O)(=O)N1Cc1cc2c(cc1Br)OCCO2 | i | 1.02 | 88.0

(cont.)
SMILES | CFTR F508del | CFTR F508del fold 10 ug/mL | CFTR F508del viability 10 ug/mL | others
Cc1cc(N2CCc3[nH]c4ccccc4c3C2)n2ncnc2n1 | i | 0.87 | 77.0
CN(Cc1ccccc1)C(=O)N1CCNCC1 | i | 1.03 | 96.0
Cc1c(C)c(C)c(S(=O)(=O)NCCC2CCCO2)c(C)c1C (centres undefined) | i | 1.03 | 87.0
CC(CNC1CCN(Cc2ccccc2)CC1)c1ccccc1 (centres undefined) | i | 1.21 | 112.0
CON(C)C(=O)c1cc2c(cc1[N+](=O)[O-])OCCO2 | i | 1.24 | 100.0
COc1cc(OC)c(NC(C)c2nc(C)no2)cc1Cl (centres undefined) | i | 1.06 | 97.0
O=C(NC1CCN(Cc2nnsc2Cl)CC1)C1CC1 | i | 1.01 | 101.0
CC(NC(=O)c1cc(Cl)sc1Cl)C12CC3CC(CC(C3)C1)C2 (centres undefined) | i | 1.1 | 88.0
C=CCn1c(=O)c2ccccc2n2c(=S)n(CN(CC)CC)nc12 | i | 1 | 110.0
C=CCOC(Cn1ccnc1)c1ccc(Cl)cc1Cl (centres undefined) | i | / | / | CFTR F508del fold 25 µM=1.05;CFTR F508del viability 25 µM=103.0
S=c1n(CN2CCc3ccccc3C2)nc(C2COc3ccccc3O2)n1-c1ccc2c(c1)OCCO2 (centres undefined) | i | 1.04 | 79.0
COc1cc2c(cc1/C=C(/C#N)c1ccccn1)OC(C)C2 (centres undefined) | i | 1.04 | 92.0
CC(Sc1n[nH]c(=O)n1C1CC1)C(=O)C12CC3CC(CC(C3)C1)C2 (centres undefined) | i | 1.03 | 84.0
CS(=O)(=O)c1ccc(S(=O)(=O)Nc2cc(C(F)(F)F)ccc2OCC(F)(F)F)cc1 | i | 1 | 106.0
O=C(NC1CCN(C(=O)C2CC2)CC1)C1CC1 | i | 1.03 | 94.0
O=C1/C(=C/c2cccc([N+](=O)[O-])c2)Cn2cccc21 | i | 1.06 | 85.0
CC(=O)N1CCC(C(=O)NC2CC3CCC2(C)C3(C)C)CC1 (centres undefined) | i | 1.02 | 92.0
O=c1c2ccccc2nnn1CN1CCc2sccc2C1c1ccccc1 (centres undefined) | i | 1.16 | 78.0
CC(=O)c1c(SCC(=O)NC(C)c2ccco2)nc(=O)[nH]c1C (centres undefined) | i | 1 | 84.0
Cc1occc1-c1nnc(SCc2cc(-c3ccccc3)on2)o1 | i | 1.01 | 92.0
CC(=O)c1ccc(C(=O)Nc2nncs2)s1 | i | 0.94 | 95.0
Cc1cn2nc(N3CCC4(CC3)OCCO4)sc2n1 | i | 0.98 | 103.0
O=S(=O)(Nc1ccccc1-n1ccnn1)c1ccc2c(c1)OCCCO2 | i | 0.87 | 93.0
CC(OC(=O)c1ccc(OC(C)C(=O)C23CC4CC(CC(C4)C2)C3)cc1)C(=O)C12CC3CC(CC(C3)C1)C2 (centres undefined) | i | 1.08 | 97.0
CC(c1cc2ccccc2o1)N(C)Cc1noc(C(C)(C)C)n1 (centres undefined) | i | 0.88 | 89.0

Ordered by molecular weight (descending): some entries from above
SMILES | CFTR F508del | CFTR F508del fold 10 ug/mL | CFTR F508del viability 10 ug/mL | others
CCCCC1(C)NC(=O)N(CN2CCN(S(=O)(=O)c3cccs3)CC2)C1=O (centres undefined) | i | 1.07 | 97.0
Cc1ccc(C(C)(C)C)cc1S(=O)(=O)NC1CCCCCCC1 | i | 1.08 | 83.0
Cc1nn(-c2ccccc2)c(C)c1CNCc1ccc(N(C)C)cc1 | i | 1.05 | 97.0
CC(c1cc2ccccc2o1)N(C)Cc1noc(C(C)(C)C)n1 (centres undefined) | i | 0.88 | 89.0
CON(C)C(=O)c1cc2c(cc1[N+](=O)[O-])OCCO2 | i | 1.24 | 100.0
CC(=O)c1ccc(C(=O)Nc2nncs2)s1 | i | 0.94 | 95.0

Carrying on:
SMILES | CFTR F508del | CFTR F508del fold 10 ug/mL | CFTR F508del viability 10 ug/mL | others
O=C(/C=C/c1csnn1)c1ccc(Cl)c(Cl)c1Cl | i | 0.68 | 3.0
O=S1(=O)NC(=NCCSc2ccc(Br)cc2)c2ccccc21 | i | 1.03 | 104.0
O=C1c2ccccc2C(=O)N1CCCn1nnc2ccccc2c1=O | i | 1.18 | 98.0
C[n+]1c2cc(N)ccc2cc2ccc(N)cc21 | + | / | / | CFTR F508del fold 25 µM=10*;CFTR F508del viability 25 µM=74.0*
CN(Cc1nnc2n1CCC2)S(=O)(=O)c1cc(Br)ccc1Br | i | 1.05 | 85.0
Cc1cccc(-c2nnc(Sc3nc4sccn4c3[N+](=O)[O-])o2)c1 | i | 1.03 | 94.0
CCc1ccc(C(=O)NC(C)(C)C)o1 | i | 1.06 | 88.0
O=C(NCCc1ccc(C(F)(F)F)cc1)C12CC3CC(CC(C3)C1)C2 | i | 0.93 | 89.0
CCOC(=O)C1(N)CCCC1 | i | 0.99 | 103.0
CC1CN(CN2C(=O)NC(C)(c3ccc(F)c(F)c3)C2=O)CC(C)O1 (centres undefined) | i | 1.02 | 97.0
Cn1c(-c2ccco2)nn(CN2CCSc3ccc([N+](=O)[O-])cc32)c1=S | i | 1 | 94.0
CN(Cn1ncn(C)c1=S)C(c1ccccc1)c1ccc(F)cc1 (centres undefined) | i | 0.94 | 94.0
O=S(=O)(c1ccc(NC2CCCC2)nc1)N1CCOCC1 | i | 0.95 | 90.0
Cc1cc(-n2c(=O)[nH]c(=O)n(C)c2=O)ccc1Oc1ccc(SC(F)(F)F)cc1 | i | / | / | CFTR F508del fold 25 µM=1.03;CFTR F508del viability 25 µM=91.0
NCCC1CC2CCC1C2 (centres undefined) | i | 0.97 | 90.0
O=C(O)C1CCN(C(=O)N2CCCC2)CC1 | i | 1.14 | 94.0
O=S(=O)(NC1(c2ccccc2)CCC1)c1ccccc1C(F)(F)F | i | 1.1 | 93.0
O=S(=O)(Nc1ccc2c3c(cccc13)CC2)c1ccc(S(=O)(=O)N2CCCC2)cc1 | i | 0.99 | 87.0
O=[N+]([O-])c1cn(Cc2cn(-c3ccccc3)nc2-c2ccc(Cl)cc2)cn1 | i | 1.3 | 103.0
CSc1ncc(Cl)c(C(=O)OCc2cc(-c3cccs3)on2)n1 | i | 0.98 | 87.0
CCOC(=O)c1ccoc1CN1CCNC(=O)C1 | i | 0.8 | 76.0

From PubChem BioAssay

Not all compounds are listed; count on the stated rates, not on these rows.
